RGS16-Gao HTS – RGS16-Galphao interaction regulator (human); 220,000 compounds, 0.38% hits; bead-based flow cytometry RGS16-Galphao binding, fluorescence; actives lie on both sides; O15492+P09471; binding response (% of control), % at 10 µM;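 active means below 25% or above 175%, edge rows of some plates excepted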;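 further: Galphao activated by GDP with aluminum fluoride before binding; 100% = wells without compound and 0% = beads without RGS; some results beyond the cut were filed as inactive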
Target sequence (O15492 whole entry, looked up): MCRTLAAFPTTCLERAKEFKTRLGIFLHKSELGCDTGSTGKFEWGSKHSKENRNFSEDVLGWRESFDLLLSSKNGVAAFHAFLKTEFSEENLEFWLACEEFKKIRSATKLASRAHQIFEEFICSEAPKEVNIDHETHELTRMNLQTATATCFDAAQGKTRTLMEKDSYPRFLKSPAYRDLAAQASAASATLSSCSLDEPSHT
Target sequence (P09471 whole entry, looked up): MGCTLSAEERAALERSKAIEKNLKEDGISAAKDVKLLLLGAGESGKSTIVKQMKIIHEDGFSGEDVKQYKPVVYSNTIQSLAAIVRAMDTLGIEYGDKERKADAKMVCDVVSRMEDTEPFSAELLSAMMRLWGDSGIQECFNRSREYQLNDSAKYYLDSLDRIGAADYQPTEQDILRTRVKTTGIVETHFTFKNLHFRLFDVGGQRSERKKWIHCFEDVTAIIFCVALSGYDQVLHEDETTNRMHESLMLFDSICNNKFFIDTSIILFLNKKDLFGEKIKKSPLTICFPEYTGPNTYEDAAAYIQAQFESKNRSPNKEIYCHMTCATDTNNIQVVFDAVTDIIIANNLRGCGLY
HSV replic up – increases HSV replication in cells. maximum fold increase. HSV replication augmentation in cells, fold increase. 220,000 compounds, 0.005% hits;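 active means peak rise of 1.5-fold or more in the series; inconclusive means self-fluorescent or not available for retest; tested in PC3 cells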;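 further: first round at 10 µM; read as green reporter fluorescence; hits show the peak of a series up to 25 µM; 1 = signal of infected wells without compound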
INS promoter inh – TRM-6 insulin promoter activity inhibition; 130,000 compounds, 0.9% hits; inhibition, % at 2 µM; AID 1273; TRM-6 cells (human fetal islet line), insulin promoter-eGFP reporter, imaging; reporter expression induced with tamoxifen;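 active means inhibition above the mean plus 3 SD, with well images judged a real hit on visual review, cut at about 60% in these data, passing the limit was not always enough; inconclusive means inhibition over the cutoff but images rejected on review; inactive means inhibition not above the cutoff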
PKD1 inh – PKD1 (human) kinase inhibition. PKD1 kinase fluorescence polarization assay. Q15139. 200,000 compounds, 0.056% hits. inhibition, %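 (about 10 µM by stock and volumes)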;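 active means inhibition of 50% or more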;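 further: controls were vehicle for no effect and a reference inhibitor for full effect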
GALR2 ag – agonists of human galanin receptor 2 (GALR2); O43603; GALR2-expressing cells, agonist activation read-out; activation, %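 (tested at 5 µM)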; AID 803; 140,000 compounds, 0.48% hits;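 active means above mean plus 3 SD of all compounds, about 5% in these data, not always enough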;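 further: 0% = vehicle buffer wells and 100% = reference agonist at full effect; tested in CHO reporter cells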
Target sequence (O43603 whole entry, looked up): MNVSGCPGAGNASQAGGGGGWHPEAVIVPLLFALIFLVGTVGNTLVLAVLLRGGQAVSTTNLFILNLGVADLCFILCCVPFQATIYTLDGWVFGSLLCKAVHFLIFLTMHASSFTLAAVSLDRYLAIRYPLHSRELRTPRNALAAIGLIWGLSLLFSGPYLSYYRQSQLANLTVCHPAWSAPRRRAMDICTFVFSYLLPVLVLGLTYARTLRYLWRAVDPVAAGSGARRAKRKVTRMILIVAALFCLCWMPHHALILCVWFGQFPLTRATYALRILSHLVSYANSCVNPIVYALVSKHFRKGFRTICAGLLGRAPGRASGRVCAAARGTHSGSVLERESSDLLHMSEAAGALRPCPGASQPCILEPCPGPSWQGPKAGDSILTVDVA
INS promoter inh cell count – second read-out of INS promoter inh, no call of its own (marks repeat the call); normalized cell count, %; measured here: cell count, toxicity; reference of the scale not given here;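 cells exposed to compound for 48 h; stained nuclei by imaging scaled within each plate; lower means fewer cells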
HSV replic up primary fold – further read-out of HSV replic up, marked with its call; fold increase; compound at 10 µM; measured here: primary screen fold increase 10 uM; tested in PC3 cells;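 GFP signal in the first replicate; 1 = infected wells without compound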
Numbers without * were called inactive; i = inactive; ? = inconclusive; nt = not tested or not shown.

SMILES | RGS16-Gao HTS | HSV replic up | HSV replic up primary fold | INS promoter inh | INS promoter inh cell count | PKD1 inh | GALR2 ag
CNC(=O)CN1C(=O)CSc2ncccc21 | 103 | i | 0.86 | nt | nt | -1 | -3.1
COc1cccc2c(SCC(=O)N/N=C/c3ccccc3)cc(C)nc12 | 127 | i | 0.91 | 15 | 74 | 1 | -1.1
Cc1cc(C)cc(NS(=O)(=O)c2ccc3c(c2)c(=O)n(C)c(=O)n3C)c1 | 103 | i | 0.79 | 27 | 102 | -3 | -2.1
CCc1c(C)nc(Nc2nc(C)c3cc(OC)ccc3n2)[nH]c1=O | 92 | i | 0.66 | -14 | 76 | -11 | -0.9
CCCCCCOc1ccc(C(=O)n2cnc(N)n2)cc1 | 102 | i | 0.92 | 31 | 88 | 3 | -1.3
O=C(Nc1nc(-c2ccccn2)cs1)c1ccc2c(c1)OCCO2 | 130 | nt | nt | nt | nt | -1 | nt
O=C(CCNC(=O)Cn1cnc2ccccc2c1=O)NCC1CCCO1 (stereo not given) | 96 | i | 0.98 | 0 | 119 | -6 | nt
Cc1ccccc1N/C(=C(/C(Cl)=C(Cl)Cl)[N+](=O)[O-])n1nnc2ccccc21 | 100 | i | 0.98 | 16 | 138 | -1 | -0.5
O=C(COc1ccccc1)NC(=S)N1CCc2ccccc21 | 102 | i | 0.96 | -46 | 85 | 3 | -1.7
CCc1nccn1-c1cc(C(C)(C)C)nc2c(-c3ccc(Cl)cc3)cnn12 | 112 | i | 1.1 | 43 | 94 | -3 | -0.2
CCOc1ccccc1OCC(=O)N/N=C(\C)Cc1ccc(OC)cc1 | 100 | i | 0.63 | -293 | 4 | -6 | -1.2
CC(C)CCNC(=O)CN(CC1CCCO1)C(=O)CCC(=O)Nc1ccccn1 (stereo not given) | 101 | i | 0.94 | nt | nt | 2 | -1.8
COc1ccc(Nc2nnc(C)c(=O)[nH]2)cc1 | 97 | i | 0.93 | -13 | 89 | -4 | -1.1
c1ccc2c(c1)nc1n2CN(Cc2ccc3c(c2)OCO3)CN1 | 96 | i | 0.65 | nt | nt | 14 | -2.6
COc1ccc(OCC(=O)N2CC3(C)CC2CC(C)(C)C3)cc1 (stereo not given) | 102 | i | 0.97 | 8 | 38 | -7 | 0.2
CC(=O)c1c(C)n(-c2ccc(N(C)C)cc2)c2ccc(OCC(N)=O)cc12 | 101 | i | 0.96 | nt | nt | -4 | 0.0
CC1CCN(C(=O)C2CCN(S(=O)(=O)c3cccc4nsnc34)CC2)CC1 | 102 | i | 1 | -62 | 64 | 1 | nt
Cc1nc2c(C(=O)NCc3cccs3)cnn2c(C)c1Cc1ccc(F)cc1 | 104 | i | 0.86 | 17 | 73 | -7 | 1.7
CN(C)C(=O)N1CCCC(C(=O)NCc2ccccc2Cl)C1 (stereo not given) | 99 | i | 0.92 | 8 | 113 | 2 | -1.4
CC(=O)NCCc1nc2ccccc2n1Cc1ccccc1 | 105 | i | 0.97 | nt | nt | -8 | -3.4
COc1ccc2cc(/C=N/NC(=O)c3ccc(CN(c4ccc(C)c(C)c4)S(C)(=O)=O)cc3)c(Cl)nc2c1 | 102 | i | 1.1 | 50 | 153 | -1 | -1.0
Cc1nc(SCC(=O)Nc2ccc(OCc3ccccc3)cc2)n[nH]1 | 99 | i | 1.1 | nt | nt | 2 | nt
Cc1ccc(N2CCN(CC(O)COC3CCCCC3)CC2)cc1 (stereo not given) | 102 | i | 0.96 | 61 | 102 | 0 | -2.0
O=C(c1ccc2c3n(nc2c1)-c1ccccc1CO3)N1CCCCC1 | 111 | i | 0.89 | nt | nt | nt | nt
Cc1ccc(C(=O)/C=C/Nc2cccc(O)c2)cc1 | 94 | i | 1.2 | nt | nt | -4 | -1.0
Cc1nnc(NC(=O)CSc2nnc(Cc3cccn3C)n2C)s1 | 100 | i | 1 | nt | nt | -5 | -1.1
CCOC(=O)c1ccc(NC(=O)c2nc[nH]c2C(=O)N2CCC(C)CC2)cc1 | 110 | i | 0.82 | nt | nt | nt | nt
CC1(C)C2CCC1(C)C(NC(=O)/C=C/c1ccccc1)C2 (stereo not given) | 98 | i | 1 | 0 | 113 | 4 | nt
O=S(=O)(c1ccc(NC2CCCCC2)cc1)N1CCOCC1 | 106 | i | 1 | 40 | 123 | -1 | -0.3
O=C(CC(=O)NC1CCCCC1)N/N=C/c1ccccc1Cl | 102 | i | 1 | 7 | 109 | -11 | 0.0
CC(=O)Nc1cccc(NC(=O)C2CCCN2C(=O)Nc2ccc(C)cc2)c1 (stereo not given) | 106 | i | 1 | 54 | 131 | -3 | -3.0
CN(C(=O)COC(=O)c1ccc(-c2ccc(O)cc2)cc1)C1CCS(=O)(=O)C1 (stereo not given) | 98 | i | 0.79 | nt | nt | nt | nt
Cc1cc(=O)[nH]c(SCC(=O)NN(c2ccccc2)c2ccccc2)n1 | 110 | i | 0.99 | nt | nt | nt | nt
CC(=O)c1c(O)c2ccccc2n(C2CCCCC2)c1=O | 101 | i | 0.92 | nt | nt | -3 | nt
Cc1cc(=O)[nH]c(/N=C(/NC(=O)c2ccccc2)Nc2ccc3c(c2)OCCO3)n1 | nt | nt | nt | -1 | 137 | 1 | 1.9
CC(C)N1C(=O)S/C(=C/c2cccnc2)C1=O | 94 | i | 0.78 | 53 | 96 | -4 | -2.1

An excerpt from above, reduced to INS promoter inh and HSV replic up primary fold.
Structure | INS promoter inh | HSV replic up primary fold
Cc1cc(=O)[nH]c(SCC(=O)NN(c2ccccc2)c2ccccc2)n1 | nt | 0.99
CC(=O)c1c(O)c2ccccc2n(C2CCCCC2)c1=O | nt | 0.92
Cc1cc(=O)[nH]c(/N=C(/NC(=O)c2ccccc2)Nc2ccc3c(c2)OCCO3)n1 | -1 | nt

(listing goes on)
SMILES | RGS16-Gao HTS | HSV replic up | HSV replic up primary fold | INS promoter inh | INS promoter inh cell count | PKD1 inh | GALR2 ag
COc1ccccc1NC(=O)/C=C/c1ccc(OC)c(S(=O)(=O)N2CCOCC2)c1 | 99 | i | 1 | 39 | 82 | -1 | nt
COc1cc(OC)c2ccc(=O)oc2c1C(CC(=O)N1CCCC1)c1ccc2c(c1)OCO2 (stereo not given) | 106 | i | 0.66 | nt | nt | nt | nt
O=C(Nc1cnn(Cc2ccc(Cl)c(Cl)c2)c1)C12CC3CC(CC(C3)C1)C2 | nt | i | 0.98 | 11 | 131 | 2 | -1.2
COc1ccccc1C(=O)NCC1(c2ccccc2)CCCC1 | 110 | i | 0.92 | nt | nt | -2 | nt
Cc1n[nH]c(C)c1S(=O)(=O)N1CCCC(C(=O)Nc2nccs2)C1 (stereo not given) | 95 | ? | nt | nt | nt | -3 | 0.2
Cn1[nH]c(=O)c(Cl)c(Cl)c1=O | 104 | i | 0.91 | -11 | 176 | 0 | -3.0
C/C(=N\NC(=O)c1ccccc1)c1cc2cc([N+](=O)[O-])ccc2oc1=O | 106 | i | 1.1 | nt | nt | -5 | -1.1
CCOc1cc(/C=N/NC(=O)COc2cccc(C)c2)ccc1OC(=O)c1cccs1 | 103 | nt | nt | nt | nt | -5 | -2.2
Oc1ccccc1-c1nnc(COc2ccccc2)o1 | 76 | i | 1.1 | nt | nt | 11 | -1.4
O=C(Nc1ccc(-c2ccc([N+](=O)[O-])cc2)cc1)c1ccccc1F | 98 | i | 0.92 | 13 | 105 | -4 | nt
CCC(c1nnnn1Cc1ccc2c(c1)OCO2)N1CCN(c2ccc(F)cc2)CC1 (stereo not given) | 104 | nt | nt | nt | nt | -1 | -2.4
Cn1cccc1CNCc1ccccc1Cl | 86 | i | 0.94 | nt | nt | -8 | -1.9
COc1ccc(NCC(=O)N/N=C/C=C\c2ccccc2)cc1 | 53 | i | 1 | -30 | 104 | -9 | -0.7
O=C(CNC(=O)c1ccncc1)N/N=C/c1cccc([N+](=O)[O-])c1 | 105 | i | 1.1 | nt | nt | -3 | nt
Cc1ccc(NC(=S)NCCO)c(C)c1 | 103 | i | 1 | -29 | 84 | 15 | -3.1
CCCCS(=O)(=O)N1C2=NC(C(=O)OC)=C(C(=O)OC)[C@@H]3N(C)c4ccc(OC)cc4[C@]23C[C@H]1C(=O)OC | 103 | i | 0.97 | nt | nt | nt | nt
O=C(NNC(=O)c1ccccc1Br)c1ccccc1Cl | 70 | i | 1 | 44 | 59 | -2 | nt
Cc1[nH]n(C(C)(C)C)c(=O)c1Sc1ccccc1 | 99 | i | 0.94 | 38 | 177 | -11 | -2.5
CC(C)N1CC(C(=O)Nc2ccc(Br)c(Cl)c2)CC1=O (stereo not given) | 97 | i | 1 | 0 | 229 | -5 | -0.5
O=C(Cc1ccccc1)Nc1ccc(SC(F)F)cc1 | 105 | i | 0.97 | nt | nt | -6 | -1.4
O=C(/C=C/c1ccc(Br)o1)NCCCN1CCOCC1 | 100 | i | 1.1 | nt | nt | -5 | nt
O=C(Nc1ccccc1C(=O)N1CCCC1)c1cccc(S(=O)(=O)N2CCCCCC2)c1 | 119 | i | 0.91 | -21 | 97 | -3 | -0.9
CC(C)Cn1c(-c2ccccc2)nc(=S)c2c1CCCC2 | 125 | i | 0.89 | -129 | 151 | -5 | -1.8
CC(CCc1ccccc1)NS(=O)(=O)c1ccccc1 (stereo not given) | 110 | i | 0.98 | 3 | 81 | 3 | -1.4

Brought forward from above: 2 entries, then new ones.
SMILES | RGS16-Gao HTS | HSV replic up | HSV replic up primary fold | INS promoter inh | INS promoter inh cell count | PKD1 inh | GALR2 ag
CC(C)Cn1c(-c2ccccc2)nc(=S)c2c1CCCC2 | 125 | i | 0.89 | -129 | 151 | -5 | -1.8
CC(CCc1ccccc1)NS(=O)(=O)c1ccccc1 (stereo not given) | 110 | i | 0.98 | 3 | 81 | 3 | -1.4
O=C(Cn1nnc(-c2ccccc2)n1)NNC(=O)c1ccccc1 | 96 | i | 0.96 | nt | nt | -6 | nt
COc1ccc(NC(=S)Nc2cc(C(F)(F)F)ccc2F)cc1 | 106 | i | 1 | nt | nt | -3 | nt
O=C(Cn1cc2c(n1)CCCC2)NCC1CCCO1 (stereo not given) | 98 | i | 1.2 | nt | nt | -10 | -4.0
CCC1(C)Cc2c(sc3nnn(CC(=O)Nc4cccc5ccccc45)c(=O)c23)CO1 (stereo not given) | 101 | i | 0.81 | nt | nt | 1 | 0.1
O=C1NC2(NN1c1ccccc1)C1CC3CC(C1)CC2C3 (stereo not given) | 71 | i | 1 | 21 | 193 | -3 | -1.5
O=C(CCS(=O)(=O)c1cccc2nsnc12)NCc1ccccc1 | 24 | i | 0.97 | 13 | 161 | 0 | 1.3
CC(C)(C)c1ccc(-c2nnc(NC(=O)c3ccccc3)s2)cc1 | 102 | i | 0.75 | -35 | 111 | -6 | -1.2
Cc1ccccc1C1CC(c2ccccc2OC(F)F)Nc2ncnn21 (stereo not given) | 109 | i | 0.99 | -25 | 77 | -8 | -0.8
CC1=C(C(=O)NC(C)CCc2ccccc2)C2(CCC(C)CC2)OC1=O (stereo not given) | 101 | i | 0.95 | -7 | 108 | -3 | nt
Cc1c(NC(=O)c2ccc(Br)o2)c(=O)n(-c2ccccc2)n1C | 90 | i | 1.1 | -29 | 44 | 9 | 1.6
C/C(CC(C)C)=N\NC(=O)Nc1ccccc1 | 102 | i | 1 | 26 | 142 | -12 | 0.5
O=C(NCc1cn(-c2ccccc2)nc1-c1ccc(F)cc1)c1cccc([N+](=O)[O-])c1 | 102 | i | 1 | nt | nt | 3 | -0.3
O=C(NNC1=NCCC1)c1ccc(Br)cc1 | 213 | i | 0.93 | 13 | 128 | -5 | -2.8
Cc1ccc(S(=O)(=O)NNC(=O)c2cnn(-c3ccccc3)c2C(F)(F)F)cc1 | 105 | i | 0.98 | nt | nt | nt | nt

A draw from above in order of formula weight, lowest first:
SMILES | RGS16-Gao HTS | HSV replic up | HSV replic up primary fold | INS promoter inh | INS promoter inh cell count | PKD1 inh | GALR2 ag
C/C(CC(C)C)=N\NC(=O)Nc1ccccc1 | 102 | i | 1 | 26 | 142 | -12 | 0.5
O=C1NC2(NN1c1ccccc1)C1CC3CC(C1)CC2C3 (stereo not given) | 71 | i | 1 | 21 | 193 | -3 | -1.5
CC(C)(C)c1ccc(-c2nnc(NC(=O)c3ccccc3)s2)cc1 | 102 | i | 0.75 | -35 | 111 | -6 | -1.2
Cc1ccccc1C1CC(c2ccccc2OC(F)F)Nc2ncnn21 (stereo not given) | 109 | i | 0.99 | -25 | 77 | -8 | -0.8
Cc1c(NC(=O)c2ccc(Br)o2)c(=O)n(-c2ccccc2)n1C | 90 | i | 1.1 | -29 | 44 | 9 | 1.6
CCC1(C)Cc2c(sc3nnn(CC(=O)Nc4cccc5ccccc45)c(=O)c23)CO1 (stereo not given) | 101 | i | 0.81 | nt | nt | 1 | 0.1
